Screening results deposited in PubChem by several laboratories.
rRNA inh HTS – inhibitors of bacterial rRNA selective over humanized ribosomes | E. coli WT GFP vs humanized-ribosome RFP mutants, fluorescence, 24 h; stronger effect = lower value; DMSO median 0, no signal -100 | GFP signal change (wild-type ribosome), % (no concentration beside the values) | 350,000 compounds, 1.6% hits;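 active means significant combined selectivity score with lowered wild-type GFP, culture density cut under 30%, mutant RFP and density less affected; inactive means any of these conditions unmet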; further: one replicate is shown; some compounds called inactive have numbers as strong as hits
Ecoli growth – blocks Escherichia coli growth. OD600, 23 h; stronger effect = lower value. OD600 absorbance (test concentration not listed). 330,000 compounds, 0.21% hits;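 active means OD600 absorbance below the run mean of sample wells minus 3.6 SD, in any replicate, cut at about 0.56 in these data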;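 further: stock transfer was 300 nL into about 60 µL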
HNF4A DNA FP – change in binding of human HNF4 alpha to DNA; activity change, % at 10 µM; P41235; HNF4a-FITC DNA binding, fluorescence polarization, 1 h; AID 1224865; 360,000 compounds, 0.3% hits; in the data active means activity change above about 30%, passing the limit was not always enough;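 further: controls were the assay level and a saturating level of protein; the project sought stronger binding though the title names inhibitors; some compounds called inactive have numbers as strong as hits; positive values seem to mean higher polarization but the record does not say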
B2AR ag – agonists of human beta-2 adrenergic receptor inducing internalization; Am2.2-beta2AR cells, FAP receptor internalization, flow cytometry; reference of the scale not given here; 340,000 compounds, 0.43% hits; response, % (no concentration beside the values); P07550;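 active means response above a set limit, near 3 SD of response in nonfluorescent compounds, cut at about 42% in these data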;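 further: stock transfer was 100 nL into about 11 µL; a reference agonist was the positive control; negative values mostly stem from fluorescent compounds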
Target sequence (P07550 whole entry, looked up): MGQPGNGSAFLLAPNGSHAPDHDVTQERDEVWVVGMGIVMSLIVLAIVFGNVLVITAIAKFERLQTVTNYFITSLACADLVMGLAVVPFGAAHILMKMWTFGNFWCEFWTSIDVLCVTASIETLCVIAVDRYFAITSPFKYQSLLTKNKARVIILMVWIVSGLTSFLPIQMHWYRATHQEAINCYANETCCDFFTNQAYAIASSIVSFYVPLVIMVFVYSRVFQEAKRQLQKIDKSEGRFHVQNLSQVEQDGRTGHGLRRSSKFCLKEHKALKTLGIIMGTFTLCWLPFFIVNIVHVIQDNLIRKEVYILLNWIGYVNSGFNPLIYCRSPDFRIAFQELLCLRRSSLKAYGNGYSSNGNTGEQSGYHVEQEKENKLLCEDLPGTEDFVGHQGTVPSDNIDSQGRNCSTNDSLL
ALR H2O2 inh – human ALR oxidase inhibition via reduced H2O2; purified ALR, DTT oxidation, H2O2 HRP-luminol luminescence; inhibition, % (test concentration not listed); 290,000 compounds, 3.8% hits;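 active means mean and each replicate at 75% or more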;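 further: stock transfer was 7.5 nL into about 7.5 µL; 0% = neutral wells and 100% = wells with inactivated enzyme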
Target sequence (P55789 whole entry, looked up): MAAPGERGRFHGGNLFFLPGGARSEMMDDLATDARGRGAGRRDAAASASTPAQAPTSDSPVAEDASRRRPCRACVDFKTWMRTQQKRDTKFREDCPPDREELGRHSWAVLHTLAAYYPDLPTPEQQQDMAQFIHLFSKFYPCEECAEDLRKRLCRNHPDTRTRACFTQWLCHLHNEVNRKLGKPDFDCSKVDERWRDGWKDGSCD
FGF22 binding – binders of recombinant human FGF22 by thermal shift | calls only at 9.99 µM | AID 651658 | SYPRO orange fluorescence; percent of sucrose octasulfate shift, DMSO zero | Q9HCT0 | 340,000 compounds, 1.5% hits;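 active means melting point raised past a set limit in the mean and every replicate; three in four hits are not shown here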
Target sequence (Q9HCT0 whole entry, looked up): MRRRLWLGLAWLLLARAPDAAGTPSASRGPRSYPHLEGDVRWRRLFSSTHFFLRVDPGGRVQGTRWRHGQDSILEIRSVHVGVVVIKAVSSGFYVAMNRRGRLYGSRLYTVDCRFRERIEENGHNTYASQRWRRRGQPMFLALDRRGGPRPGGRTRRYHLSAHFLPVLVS
UCH37 inh – blocks the human deubiquitinase UCH37; purified proteasome/UCH37, Ub-AMC cleavage fluorescence; inhibition, % (no concentration beside the values); 330,000 compounds, 0.33% hits; AID 588478;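 active means mean of two replicates above 20%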;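 further: 0% = compound-free wells with enzyme and 100% = wells lacking proteasome; stock transfer was 100 nL into about 20 µL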
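Assay system: Proteasome-bound UCH37. Buffer or medium: pH 7.4 Tris-HCl (50 mM) with ovalbumin, ATP-MgCl2, DTT. Incubation: 30 min preincubation with enzyme, 25 min cleavage at room temperature. Measured by: fluorescence, ex 355 nm, em 460 nm. Read-out basis: percent inhibition. Control set: wells without proteasome as full block, compound-free enzyme plus substrate as uninhibited.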
rRNA inh HTS OD600 – also measured in rRNA inh HTS; calls as there; OD600 change, %; measured here: OD600 growth;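 optical density of the mix in the first replicate; 0 = DMSO median and -100 = no signal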
rRNA inh HTS RFP – further read-out of rRNA inh HTS, marked with its call; RFP signal change, %; measured here: RFP humanized mutant strains;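 first replicate; 0 = DMSO median and -100 = no signal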
* = called active by the depositor; i = inactive; x = not tested or not shown.

SMILES	rRNA inh HTS	rRNA inh HTS OD600	rRNA inh HTS RFP	Ecoli growth	HNF4A DNA FP	B2AR ag	ALR H2O2 inh	FGF22 binding	UCH37 inh
O=C(NCc1ccco1)c1cccc(S(=O)(=O)N2CCOCC2)c1	x	x	x	0.7	-1.8	-6	-1	x	0.4
CSc1nc(Cl)c(Cc2ccc(OC(C)C)cc2)c(N(C)C)n1	6	12	1.0	0.69	-1.6	0	-2	i	1.0
Cc1cccc(OCc2nnc(SCC(=O)NC3CCCCC3)n2C)c1	5	7	1.8	0.7	2.9	-5	-3	i	5.0
COC(C[C@@H]1O[C@@H]1[C@@H](O)COCc1ccccc1)OC	-4	1	-7.3	x	0.9	3	x	i	1.4
COC(=O)C1=C(N)Oc2cc(C)n(Cc3cccnc3)c(=O)c2C1c1cc(OC)ccc1OC (stereo unspecified)	x	x	x	0.69	2.4	-3	-1	x	4.9
CCOC(=O)N1[C@@H]2C=C(C)[C@@H]2[C@@H]2[C@@H](C)C(=O)N21	x	x	x	0.66	2.4	2	-37	x	2.3
CCOC(=O)c1c(NC(=O)CC)sc(C(=O)N2CCCCC2)c1C	x	x	x	0.64	1.9	16	-3	x	0.9
Cc1csc(NC(=O)c2ccc(Cl)cc2[N+](=O)[O-])n1	3	7	-0.8	0.68	0.7	9	-17	x	0.3
[O-]c1c[n+](-c2ccc(-[n+]3cc([O-])on3)cc2)no1	18	14	-1.1	0.71	-3.0	-2	98*	i	3.1
CCOC(=O)N1CCC(N2CCCC(C(=O)c3ccccc3OC)C2)CC1 (stereo unspecified)	11	1	3.8	0.69	-0.2	10	-9	i	-2.6
CN1C(=O)CC(N2CCN(C(c3ccccc3)c3ccccc3)CC2)C1=O (stereo unspecified)	x	x	x	0.68	-3.8	1	-3	x	3.5
Cc1ccc(NS(=O)(=O)c2ccc3c(c2)N(C)CCO3)cc1	-19	-41	-5.3	x	-2.3	16	6	i	x
COc1ccc(C(=O)Nc2ccc(S(=O)(=O)Nc3nccnc3OC)cc2)cc1OC	x	x	x	0.68	-0.7	4	5	x	0.3
Cc1cccc(NC(=O)CNC(=O)Cc2ccc3c(c2)OCCO3)c1C	10	13	3.5	0.7	18	6	x	i	0.2
O=c1[nH]nnc2c1sc1nc(N3CCOCC3)c3c(c12)CCCC3	6	-1	1.2	0.68	0.5	13	38	i	11
Cc1cccc(C)c1OCC1CNC(=O)O1 (stereo unspecified)	2	3	6.0	x	-9.2	2	-1	i	x
COc1ccccc1CNC(=O)C(=O)c1cn(CC(=O)N2CCCCC2)c2ccccc12	6	8	46	x	2.6	x	x	i	x
Nc1ccc(-c2cc(-c3ccc(N)cc3)nc(-c3ccccc3)n2)cc1	-2	13	-3.5	0.7	7.1	4	-1	i	-122
O=C(NC(=S)NC(c1ccccc1)c1ccncc1)c1ccccc1 (stereo unspecified)	-30	-52	-9.2	0.72	-5.7	-4	x	i	3.7
CCOCc1cc(C)[nH]c(=O)c1C#N	x	x	x	0.76	-0.2	4	-2	x	-114
Cc1cc(C)c(S(=O)(=O)c2ccccc2C)c(Cl)n1	x	x	x	0.7	-1.2	-3	-17	x	6.9
O=S(=O)(c1ccc2c(c1)OCCO2)N(Cc1ccc(F)cc1)Cc1nnc(-c2cccs2)o1	x	x	x	0.76	-0.6	-8	0	x	-1.4
O=C(CC(c1ccccc1)c1ccccc1O)NCc1ccco1 (stereo unspecified)	7	-3	-2.5	0.75	0.4	-5	9	x	-1.5
O=S(CC1CC1(Cl)Cl)CC1CC1(Cl)Cl (stereo unspecified)	3	-1	4.0	0.67	1.6	-2	x	i	4.8
O=C(Nn1cnnc1)c1cc2cc(Br)ccc2oc1=O	x	x	x	0.69	0.5	6	0	x	4.6
Other entries follow.
SMILES	rRNA inh HTS	rRNA inh HTS OD600	rRNA inh HTS RFP	Ecoli growth	HNF4A DNA FP	B2AR ag	ALR H2O2 inh	FGF22 binding	UCH37 inh
COc1ccc(CN2CCN(C(=O)Cn3nc(C(=O)O)c4ccccc4c3=O)CC2)cc1F	3	10	1.3	x	2.1	-1	-3	i	x
CC1CCCC(C)N1CCCNC(=O)Cn1ncc2c3ccccc3n(C)c2c1=O (stereo unspecified)	x	x	x	0.67	-1.1	-12	1	x	-14
N#Cc1c(-c2ccccc2)nc(-c2cccnc2)[nH]c1=O	3	5	7.5	0.64	-2.1	9	x	i	-0.2
CCOc1ccccc1CNC(=O)CN1C(=O)CSc2ccc(S(=O)(=O)N3CCOCC3)cc21	0	-2	1.2	0.7	7.7	-7	-3	i	2.2
Cc1nc([N+](=O)[O-])c(C(=O)OCc2ccccc2Br)n1C	1	-8	0.2	0.66	-2.0	2	x	i	1.4
CNC(=O)CSc1nc2ccccc2c(=O)n1-c1cc(OC)ccc1OC	7	0	-4.0	0.69	7.1	4	-12	i	-2.0
O=C1/C(=C/c2ccccn2)SC(=S)N1c1ccc(O)cc1	3	5	1.4	0.7	0.6	-5	-6	i	1.6
O=C(Cc1ccccc1)NNC(=O)C1CCCC1	15	8	0.4	0.65	1.4	-6	0	i	0.0
O=C(Cc1cccs1)NCc1ccc(Cl)cc1Cl	-12	-3	-4.0	0.68	0.6	1	-5	i	1.7
COc1ccc(C(=O)N2CCN(c3nc(C4CC4)nc4sc(C)c(C)c34)CC2)cc1	-18	-24	4.1	0.68	1.2	-3	1	i	2.0
O=c1[nH]sc2ccccc12	-59	-80	-31	0.066*	1.2	3	x	i	7.8
Cc1ccc(NC(=S)N2CCCC(c3nc4ccccc4[nH]3)C2)cc1 (stereo unspecified)	-27	-22	-1.2	0.61	1.3	-22	-4	i	-0.3
O=C1OCc2ccc(NC(=O)c3sccc3Cl)cc21	6	15	-2.6	0.63	2.2	-10	-23	i	2.8
CCOc1ccccc1NC(=S)N1CCN(c2nc(-c3ccc(F)cc3)cs2)CC1	-5	-5	1.5	0.69	6.2	5	-1	i	6.0
O=C(C1CC1)N(Cc1nc2ccccc2c(=O)[nH]1)Cc1cccs1	1	6	-0.9	0.72	4.5	3	-3	i	2.2
O=[N+]([O-])c1ccc(Sc2cc[n+]([O-])c3ccccc23)c([N+](=O)[O-])c1	20	21	2.2	0.66	-2.5	5	-10	x	13
NC(=O)C1CCCN(C(=O)c2ccc(S(=O)(=O)N3CCCCCC3)cc2)C1 (stereo unspecified)	x	x	x	0.66	2.2	0	x	i	-2.4
CCn1c(NCc2ccccn2)nc2c1c(=O)n(C)c(=O)n2C	x	x	x	0.69	4.4	-3	2	x	2.1
COc1ccc(-n2ncc3c(N4CCCc5ccccc54)ncnc32)cc1	-24	-24	-1.6	x	0.7	-13	x	i	x
Cc1c(CCC(=O)N[C@@H](CC(C)C)C(=O)O)c(=O)oc2c(C)c3oc4c(c3cc12)CCCC4	-12	-14	0.4	0.69	-1.2	7	x	i	-52
CN(CC(=O)Nc1ccc(Cl)cc1F)C1=NS(=O)(=O)c2ccccc21	10	12	4.6	0.69	0.9	-8	0	i	2.8
Fc1ccc(-n2cnnn2)c(F)c1	6	1	-3.3	0.69	-4.8	5	-6	i	3.1
O=C(COc1ccc(Cl)cc1)N1N=C(c2cccs2)CC1c1ccco1 (stereo unspecified)	3	-5	15	0.68	3.9	-1	x	i	-47
C#Cc1ccc([C@H]2C=C(C(=O)NCc3nc4ccccc4[nH]3)O[C@@H](OCc3ccc(CO)cc3)C2)cc1	x	x	x	x	8.3	1	26	x	1.4
Cc1cc(C(=O)Nc2c(C)n(C)n(-c3ccccc3)c2=O)c2ccccc2n1	x	x	x	0.74	1.6	3	1	x	0.7

Pulled one by one from the entries so far, five records:
SMILES	rRNA inh HTS	rRNA inh HTS OD600	rRNA inh HTS RFP	Ecoli growth	HNF4A DNA FP	B2AR ag	ALR H2O2 inh	FGF22 binding	UCH37 inh
O=C(Cc1cccs1)NCc1ccc(Cl)cc1Cl	-12	-3	-4.0	0.68	0.6	1	-5	i	1.7
Cc1ccc(NC(=S)N2CCCC(c3nc4ccccc4[nH]3)C2)cc1 (stereo unspecified)	-27	-22	-1.2	0.61	1.3	-22	-4	i	-0.3
Fc1ccc(-n2cnnn2)c(F)c1	6	1	-3.3	0.69	-4.8	5	-6	i	3.1
COc1ccc(-n2ncc3c(N4CCCc5ccccc54)ncnc32)cc1	-24	-24	-1.6	x	0.7	-13	x	i	x
CCn1c(NCc2ccccn2)nc2c1c(=O)n(C)c(=O)n2C	x	x	x	0.69	4.4	-3	2	x	2.1

Additional entries:
SMILES	rRNA inh HTS	rRNA inh HTS OD600	rRNA inh HTS RFP	Ecoli growth	HNF4A DNA FP	B2AR ag	ALR H2O2 inh	FGF22 binding	UCH37 inh
CCN(CC)C(=O)CSc1nnc(CCCCCNC(=O)OC(C)(C)C)o1	x	x	x	0.64	-3.8	5	2	x	0.8
Cc1ccc2sc(N(CCN(C)C)C(=O)/C=C/c3cccs3)nc2c1C	-10	-5	-1.2	0.65	0.1	5	4	i	-78
Cc1csc(NC(=O)C2CCN(S(=O)(=O)c3cccs3)CC2)n1	-13	-8	-0.2	0.7	1.8	-4	-20	i	1.1
CN(C)CCn1c(C(=O)Nc2ccccc2)cc2ccccc21	x	x	x	0.69	-1.2	-5	-5	x	3.6
CCOc1cc(/C=C2/C(=O)ON=C2C)cc(Br)c1O	-3	1	-4.4	0.69	3.0	-4	x	i	4.1
Cc1nc2nc3c(c(=O)n2[nH]1)CCCC3	x	x	x	0.7	-1.0	-3	4	x	0.9
CC1NC(=O)c2cc3ccccc3cc2-n2c1nc1ccccc1c2=O (stereo unspecified)	-9	-1	0.3	x	0.5	x	x	i	x
CCC12CN3CC(CC)(CN(C1)C3c1c(O)ccc3ccccc13)C2=O (stereo unspecified)	x	x	x	0.75	-3.2	0	x	x	2.7
CCc1nnc(NC(=O)C2Cc3ccccc3C(=O)O2)s1 (stereo unspecified)	1	6	-1.3	0.7	-3.1	-3	0	i	2.9
O=C(NCCCN1CCOCC1)/C(=C/c1cccs1)NC(=O)c1ccccc1	-3	2	7.2	0.67	0.1	-4	-4	i	5.0
CC1(Oc2ccccc2-c2ccno2)CCN(Cc2ccc(-c3ccccc3)o2)C1 (stereo unspecified)	-13	-10	-1.3	x	8.2	x	x	i	x
Cc1ncc(CN2CCC(CO)(Cc3ccccc3)CC2)s1	10	9	-2.6	0.68	3.5	0	-10	i	5.6
CCn1c(CCC(=O)O)nc2cc(S(=O)(=O)N3CCOCC3)ccc21	8	5	-1.1	0.69	-0.5	-6	0	i	-3.8
CCc1ccc(NC(=S)N(CCCN2CCOCC2)Cc2ccccn2)cc1	x	x	x	x	-2.3	-1	1	x	x
O=C1SCC(c2ccccc2)=NN1Cc1ccccc1	x	x	x	0.72	-0.1	-24	-7	x	4.2
CCOC(=O)c1cnc(N2CCOCC2)[nH]c1=O	x	x	x	0.65	-2.8	9	-7	x	5.0
Cc1cnc(C(=O)OCC(=O)Nc2c(Cl)cc(Cl)cc2Cl)cn1	6	18	-2.9	0.71	6.2	12	-6	i	-1.0
COc1cccc(-c2cnc(C(O)c3ccc(SC)cc3)[nH]2)c1 (stereo unspecified)	5	-9	5.5	x	5.5	x	x	i	x
O=C(CSc1nc2ccc(Cl)cc2[nH]1)c1ccc2c(c1)OCO2	x	x	x	0.65	-2.2	-7	3	x	4.8
Cc1cc(-c2ccccc2)nc(SCc2ccc(C(=O)O)cc2)n1	-30	-29	-6.0	0.72	4.2	8	37	i	3.2
O=C(Oc1ccc(-c2nnco2)cc1)N(c1ccccc1)c1ccccc1	x	x	x	0.65	-2.3	-4	-10	x	0.9
CC(=O)Nc1cccc(C(=O)OCCCOc2ccc(F)cc2)c1	-3	-9	1.0	0.65	1.2	9	-2	i	0.1

Some of the compounds tested (hit frequency here may not be typical).
